# 2A StopGo: FMDV 2A StopGo reporter, luciferase signal. human cells with a luciferase reporter of 2A StopGo recoding; control for the full effect not named in the record. Potency, µM (top dose mostly 57.9 µM), for inactives: at the top dose signal change, negative = less light. 1.2% of 410,000 active; active = well fitted falling curve with a large enough effect; inconclusive = small, poorly fitted or top-dose-only effect; inactive = no such curve, though single readings can be large or run the other way; tested in HEK293T cells; further: nearly all actives have a fitted effect of over 45% in size; luciferase light after 4 h
# RE007 growth inh: less growth of the S. pombe RE007 Vpr strain | S. pombe RE007 Vpr strain, BacTiter-Glo ATP luminescence, 24 h; control for the full effect not named in the record | Potency, µM (series often up to 92.2 µM), without a hit: at the highest dose activity change, negative = less growth | 0.21% of 360,000 active; active = well fitted falling curve with a large enough effect; inconclusive = small, poorly fitted or top-dose-only effect; inactive = no such curve, though single readings can be large or run the other way;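 further: nearly all actives have a fitted effect of over 50% in size; the assay follows cell death caused by Vpr and the record does not say whether a fall means rescue or toxicity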
#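 Fission yeast strain RE007, carrying one chromosomally integrated HIV-1 vpr copy, was seeded at OD 0.01 in PMG+AL medium with 23 nL pinned compound. After 24 h at 30 °C and 99% humidity, viability was read by BacTiter-Glo luminescence.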
# The depositor's hits bear a star; ? = inconclusive; [ ] = another dose, or the depositor's remark. On the % scale 0 is the no-effect control and ±100 the full control effect; potency means the concentration at half of the fitted maximal effect. Not all compounds are listed; the hit share may differ from the screen's.
# The line under a structure holds: 2A StopGo | RE007 growth inh
CC(C)NC(=O)C1C(c2ccc(C(F)(F)F)cc2)=Nc2ccccc2N1C(=O)c1cc2ccccc2[nH]1 (stereo not drawn)
  -3% | -8%
CC(=O)Nc1ccc(S(=O)(=O)N[C@@H](C)C(=O)OCC(=O)c2ccc(Br)s2)cc1
  0% | 9%
COc1ccc(S(=O)(=O)N(C)C[C@H]2Oc3ncc(Br)cc3C(=O)N([C@@H](C)CO)C[C@@H]2C)cc1
  22% | 15%
CC(C)[C@H](NC(=O)c1ccco1)C(=O)Nc1ccc(N2CCCCCC2)cc1
  -1% | 19%
CC1CCCN(C(=O)CCCNC(=O)c2ccc(Cl)cc2)C1 (stereo not drawn)
  6% | -10%
OCC[C@H]1C[C@@H](O)[C@H](O)[C@@]2(CCCCO2)O1
  -1% | -9%
COc1cccc(NC(=O)C2(C)CCN2Cc2ccccc2Cl)c1 (stereo not drawn)
  -23% | -18%
O=C(C[C@@H]1C[C@@H]2c3cc(NS(=O)(=O)c4ccc(F)cc4)ccc3O[C@@H]2[C@H](CO)O1)NCc1ccc(Oc2ccccc2)cc1
  ? | 19%
Cc1ccc(CN2C(=O)C(F)(F)Oc3ccccc32)cc1
  -17% | -7%
CCOc1ccc(CCNC(=O)COC(=O)c2cccc(S(=O)(=O)N(C)C)c2)cc1OCC
  -2% | -2%
CC(C)(C)CNC(=O)C1(C)CCN1C(=O)C1(c2ccccc2)CC1 (stereo not drawn)
  -11% | -1%
COc1cccc(C(NC(C)=O)c2nc(-c3ccc4c(c3)OCO4)cs2)c1 (stereo not drawn)
  -21% | 7%
COc1ccc(C(=O)N/C(=C\c2cn(S(=O)(=O)N(C)C)c3ccccc23)C(=O)N2CCCC2)cc1
  -22% | -9%
Clc1cccc(Cc2c(-c3ccco3)nc3ccc(Br)cn23)c1
  25µM* | ?
O=S1(=O)CC(N2CC=CC2)CN1Cc1cn(Cc2cccc(Cl)c2)nn1 (stereo not drawn)
  -10% | 12%
COc1cccc(NC(=O)CSCc2nc3sc(C)c(C)c3c(=O)[nH]2)c1
  6% | 15%
Cc1cccc(C)c1NC(=O)C1(C)CSCC(=O)N1CCCn1ccnc1 (stereo not drawn)
  -10% | 14%
NC(c1ccccc1)c1csc(Nc2ccc(S(N)(=O)=O)cc2)n1 (stereo not drawn)
  -13% | 3%[18.4 µM]
CC(O)(c1ccc(F)c(F)c1)c1nc(-c2ccc(Cl)cc2)cs1 (stereo not drawn)
  -18% | ?
CC(=O)N1CCc2cc(NC(=O)C3(C)CCN3Cc3ccccc3OC(F)F)ccc21 (stereo not drawn)
  ? | -13%
CC1(C(=O)NS(=O)(=O)c2ccc(Cl)cc2)CCN1C(=O)CC1CCCC1 (stereo not drawn)
  -5% | -3%
CCCCN1C(=O)C(CC(=O)NCc2cccc3ccccc23)CC(C(=O)N(C(C)C)C(C)C)=C1C (stereo not drawn)
  -15% | -11%
COC(=O)c1ccc2nc3c(cc2c1)[C@@H]1CCN2C(=O)CCC[C@H](C3)[C@H]12
  20% | 1%
O=C(c1[nH]c(C(F)(F)F)nc1-c1ccccc1)N1CCN(c2ccccn2)CC1
  -15% | -11%
O=S(=O)(c1ccccc1)N1CC2CC(Br)C(Br)CC21 (stereo not drawn)
  90%[activator] | -5%
O=C1C(Sc2ccccc2)=C[C@@]2(O)CC[C@@H](O)[C@]1(Sc1ccccc1)[C@H]2O
  9% | -2%
O=C(CCNC(=O)c1ccc(Cl)cc1)Nc1cc(C(F)(F)F)ccc1N1CCOCC1
  -21% | -18%
CC(O)C(NS(=O)(=O)c1ccc(Cl)cc1)C(=O)OCCOc1ccc(F)cc1 (stereo not drawn)
  ? | 7%
CC=C1OC(n2cnc3c(N)ncnc32)C(O)C1O (stereo not drawn)
  2% | 7%
COC(=O)C1=CN(c2c(C)cc(C)cc2C)C(N)=C(C#N)C1c1ccccc1 (stereo not drawn)
  -12% | 7%

# Two entries from above in a different format:
> CC(O)C(NS(=O)(=O)c1ccc(Cl)cc1)C(=O)OCCOc1ccc(F)cc1 (stereo not drawn)
- 2A StopGo: ?
- RE007 growth inh: 7%

> CC=C1OC(n2cnc3c(N)ncnc32)C(O)C1O (stereo not drawn)
- 2A StopGo: 2%
- RE007 growth inh: 7%

# Next part
# The line under a structure holds: 2A StopGo | RE007 growth inh
CCN(CC)c1ncnc2c1ncn2[C@H]1CN(Cc2ccc(Cl)cc2)C[C@@H](CO)O1
  -8% | 16%
O=C(Nc1ccccc1Cl)c1cc(C2CCCN(C(=O)OCCF)C2)on1 (stereo not drawn)
  23% | -6%
Cn1c(N)c(C(=O)CN2CCN(S(=O)(=O)c3ccccc3C#N)CC2)c(=O)n(C)c1=O
  11% | -6%
COCCNc1oc(/C=C/c2cccc(OC)c2)nc1S(=O)(=O)c1ccccc1
  -6% | 0%
CCOC(=O)C1CC2=C(CC(C)(C)CC2=O)N(CCOC)C1=O (stereo not drawn)
  -13% | -7%
CCOC(=O)C1(C)CCCN1C(=O)c1ccc2ccccc2c1 (stereo not drawn)
  -1% | 10%[18.4 µM]
CCC1(C)Cc2c(C#N)c(SC)nc(N3CCOCC3)c2CO1 (stereo not drawn)
  29% | 8%
Cn1c(=O)c2cc(NC(=O)Cc3cccnc3)ccc2n1-c1ccc2ccccc2c1
  -5% | -28%
COCCCN1C(=O)C(CC(=O)NCCc2ccccn2)CC(C(=O)N2CCCCCC2)=C1C (stereo not drawn)
  -30% | -10%
Cc1ccc(-c2nc3c4ccccc4ccn3c2Cc2ccccc2C(F)(F)F)cc1
  -17% | -22%
COc1ccc([C@H]2/C=C\CN(C(=O)C3CC3)[C@@H](C)C(=O)N2Cc2ccc(F)cc2)cc1
  -20% | 1%
C[C@@H](NC(=O)c1ncn2c1c(=O)[nH]c1ccc(Br)cc12)c1ccccc1
  0% | 4%
CCOC(=O)c1ccc(NC(=O)c2c(NCc3ccccc3)[nH]c(=O)[nH]c2=O)cc1
  -12% | -10%
CC1=C(C(=O)N(C)C)CC(CC(=O)NC2CCCCC2)C(=O)N1CCCN1CCCC1=O (stereo not drawn)
  -13% | 8%
N#CC1(NC(=O)CSc2nnc(C3CC3)n2N)CCCCC1
  -1% | -3%
N#CC1(NC(=O)COC(=O)C2CCN(S(=O)(=O)c3ccc4c(c3)OCCO4)CC2)CCCCC1
  -14% | 13%
Cc1ccc(-[n+]2c(Cc3nn(-c4ccccc4)c(C)[n+]3-c3ccc(C)cc3)nn(-c3ccccc3)c2C)cc1
  -8% | -13%
CCN(CC(=O)Nc1c(F)cccc1F)C(=O)c1cccc(S(=O)(=O)N2CCCc3ccccc32)c1
  -1% | -3%
CC(C)C[C@@H](CN)NC(=O)c1nc[nH]c1C(=O)N[C@@H](C)C(=O)CNC[C@H](C)NC(=O)c1nc[nH]c1C(=O)N[C@@H](C)C(=O)O
  -23% | -8%
Cc1cc(C)c(NS(=O)(=O)c2ccccc2)c(C)n1
  -23% | 3%
COc1ccc(C(NC(=O)C2CCN(CCOc3ccc(Cl)cc3Cl)CC2)c2ccccn2)cc1 (stereo not drawn)
  -12% | 3%
Cc1ccc(C)c(NC(=O)C2(C)CCCN2C(=O)C(C)C)c1 (stereo not drawn)
  -17% | 1%
COC(=O)[C@H]1C[C@H](OC(=O)NCc2ccccc2)[C@@]2(O)CN(S(=O)(=O)c3ccc(C)cc3)CC2[C@H]1C(=O)OC (stereo partly drawn)
  -7% | 1%
COc1ccc(CCNCc2cc(OC)cc(OC)c2)cc1
  -17% | -13%
CN1CCC(NC(=O)C2(C)CCN2Cc2ccc3ccccc3c2)CC1 (stereo not drawn)
  -6% | -2%[18.4 µM]
COC(=O)c1c(NC(=O)COC(=O)CNC(=O)c2cccc(OC(F)F)c2)sc(C)c1C
  -23% | -2%
Nc1nc2ccc(Cl)cc2cc1C(=O)NCCc1ccc(Cl)cc1Cl
  -16% | 6%
CCCn1cnnc1CNC(=O)[C@H]1O[C@@H](n2ccc(=O)[nH]c2=O)[C@H](O)[C@@H]1O
  -8% | 29%
CC(C)(C)NC(=O)C(c1ccnc2ccccc12)n1c(=O)c(-c2ccccc2)nc2ccccc21 (stereo not drawn)
  24% | ?
CS(=O)(=O)N1c2ccccc2[C@]2([C@@]34C[C@H]5C(=O)N[C@@H](Cc6ccccc6)C(=O)N5[C@@H]3N(S(C)(=O)=O)c3ccccc34)C[C@H]3C(=O)N[C@@H](Cc4ccccc4)C(=O)N3[C@H]12
  1% | 3%
Cc1c(C(=O)NCC2CC2)sc(=O)n1Cc1cccc(F)c1
  -19% | -23%[18.4 µM]
COc1ccc(CNC(=O)c2ccc(-n3cncn3)c3ccoc23)cc1OC
  -4% | 6%
O=C(NCc1ccccc1)C(c1ccc(-c2ccccc2)cc1)n1c(=O)c(-c2ccco2)nc2ccccc21 (stereo not drawn)
  -4% | -15%
CN(C1CCCCC1)S(=O)(=O)c1ccc2c(c1)c(=O)c(C(=O)O)cn2C
  -25% | -18%
F[B-](F)(F)c1cc2ccccc2s1
  -15% | -11%
CCCS(=O)(=O)NC(=O)C1(C)CCCN(C(=O)CCc2cccs2)C1 (stereo not drawn)
  0% | 15%
O=C(CC[C@H]1O[C@@H](n2ccc(=O)[nH]c2=O)[C@H](O)[C@@H]1O)N[C@H](Cc1ccccc1)C(=O)NCCCc1ccccc1
  -11% | -3%
Cc1ccsc1C(=O)N1CCCC1(C)C(=O)NCC(C)C (stereo not drawn)
  -11% | 17%
CCOc1ccc(/C(O)=C2\C(=O)C(=O)N(c3ccccn3)C2c2ccccc2F)c(C)c1 (stereo not drawn)
  ? | -5%
CCN(CC)c1cc2c(c3c1ccn3C)C1CCC2C1 (stereo not drawn)
  -16% | -26%
CC1CC(C)CN(S(=O)(=O)c2ccc(F)c(C(=O)NC3CCCCC3C)c2)C1 (stereo not drawn)
  -18% | 10%
CCN(CC)c1ncnc2c1ncn2[C@H]1CN(Cc2ccccc2)C[C@@H](COC(C)=O)O1
  0% | 7%
CCCC(=O)N1CCC1(C)C(=O)Nc1ccc(-n2cncn2)cc1 (stereo not drawn)
  -4% | 8%[18.4 µM]
CC(C)N1C(=O)NC2NC(=O)N(C(C)C)C21 (stereo not drawn)
  -5% | -9%
CC1(C(=O)NS(=O)(=O)c2cccc(Cl)c2)CCN1C(=O)Cc1ccc(Cl)cc1Cl (stereo not drawn)
  -11% | 14%
Cc1ccc([C@@H]2CC(=O)[C@@H]3CN(S(=O)(=O)c4ccc(C)cc4)[C@H](c4cccc(Cl)c4)C[C@@H]3N2S(=O)(=O)c2ccc(Cl)cc2)cc1
  -18% | 3%
COc1cc(C=C2CCCC(=Cc3ccc(OCC4CO4)c(OC)c3)C2=O)ccc1OCC1CO1 (stereo not drawn)
  11µM* | -5%
CCCCCc1c(-c2ccccc2OC)ncn1CCc1ccccc1OC
  25µM* | -29%
Cc1ccc2c(c1)CO[C@]21O[C@H](CCO)C[C@H](O)[C@H]1O
  -19% | 7%
CC(C)OC1=CC(=O)OC(c2cccc(Cl)c2)C1 (stereo not drawn)
  -15% | -15%
O=C(Cc1cccc2c(=O)cc(-c3ccccc3)oc12)OCCN1CCOCC1
  0% | 1%
O=C(CC[C@H]1O[C@@H](n2cnc3c(NC(=O)c4ccccc4)ncnc32)[C@H](O)[C@@H]1O)NCc1ccc(OC(F)(F)F)cc1
  5% | 20%
Cc1ccc2nc(-c3cccc(Cl)c3)c(Cc3ccccc3)n2c1
  -7% | ?
CC(=O)N1CCN(S(=O)(=O)c2cccc(C(=O)OCc3ccc(F)cc3)c2)CC1
  ? | 5%
CCC(c1nnnn1-c1c(C)cccc1C)N1CCN(c2ccccn2)CC1 (stereo not drawn)
  -26% | -4%
COc1ccc(C(=O)NNC(=S)NC(=O)c2ccc(F)cc2)cc1Br
  -19% | 10%
CCCCN1C(=O)C(CC(=O)NCC2CCCCC2)CC(C(=O)N(C)C)=C1C (stereo not drawn)
  -1% | 0%
CCn1nc(C(=O)Nc2ccc3c(c2)OCCO3)c2ccccc2c1=O
  15% | 0%
COc1ccc(CNC(=O)OC23CN(C(=O)OC(C)C)N(C(=O)OC(C)C)CC2(O)CN(S(=O)(=O)c2ccc(C)cc2)C3)cc1OC (stereo not drawn)
  ? | 1%
CNc1cc(-c2ccc(CC#N)cc2)ncn1
  29% | 1%[18.4 µM]
CC(C)N1CCC(C)(C(=O)Nc2cccc(Oc3ccccc3)c2)C1 (stereo not drawn)
  -15% | 12%
CC1(C(=O)NS(=O)(=O)c2ccccc2Cl)CCN1C(=O)Cc1cccc2ccccc12 (stereo not drawn)
  -13% | 17%[18.4 µM]
COc1ccc(-c2csc(C(C)(O)c3ccncc3)n2)cc1OC (stereo not drawn)
  0% | -1%[18.4 µM]

# Filtered by structure: the entries above containing a tert-butyl group (2)
# The line under a structure holds: 2A StopGo | RE007 growth inh
CC(C)(C)CNC(=O)C1(C)CCN1C(=O)C1(c2ccccc2)CC1 (stereo not drawn)
  -11% | -1%
CC(C)(C)NC(=O)C(c1ccnc2ccccc12)n1c(=O)c(-c2ccccc2)nc2ccccc21 (stereo not drawn)
  24% | ?

# Another view of 3 compounds above.
SMILES | 2A StopGo | RE007 growth inh
CCN(CC)c1cc2c(c3c1ccn3C)C1CCC2C1 (stereo not drawn) | -16% | -26%
CC1CC(C)CN(S(=O)(=O)c2ccc(F)c(C(=O)NC3CCCCC3C)c2)C1 (stereo not drawn) | -18% | 10%
CCN(CC)c1ncnc2c1ncn2[C@H]1CN(Cc2ccccc2)C[C@@H](COC(C)=O)O1 | 0% | 7%

# Screens as filed in PubChem.
